Beta apoptosis – beta cell apoptosis inhibition | INS-1E cytokine-induced death, ATP luminescence, 48 h; percent of positive-control rescue, neutral wells zero | protection from apoptosis, % (no concentration beside the values) | 0.8% of 300,000 active;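 active = all replicates at 75% or more, or half of them and the mean; inconclusive = half reach 75% but not the mean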;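 note: 0% = cytokine-treated negative control wells and 100% = positive control rescue; higher means more ATP so stronger rescue from cytokine killing; wells of about 40 µL received 100 nL stock; the first replicate is given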
B2AR ag – activates human beta-2 adrenergic receptor causing internalization | P07550 | Am2.2-beta2AR cells, FAP receptor internalization, flow cytometry; reference of the scale not given here | response, % (test concentration not listed) | 0.43% of 340,000 active;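 active = response above a set limit, near 3 SD of response in nonfluorescent compounds, cut at about 42% in these data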;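 note: stock transfer was 100 nL into about 11 µL; a reference agonist was the positive control; negative values mostly stem from fluorescent compounds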
Target sequence (P07550 whole entry, looked up): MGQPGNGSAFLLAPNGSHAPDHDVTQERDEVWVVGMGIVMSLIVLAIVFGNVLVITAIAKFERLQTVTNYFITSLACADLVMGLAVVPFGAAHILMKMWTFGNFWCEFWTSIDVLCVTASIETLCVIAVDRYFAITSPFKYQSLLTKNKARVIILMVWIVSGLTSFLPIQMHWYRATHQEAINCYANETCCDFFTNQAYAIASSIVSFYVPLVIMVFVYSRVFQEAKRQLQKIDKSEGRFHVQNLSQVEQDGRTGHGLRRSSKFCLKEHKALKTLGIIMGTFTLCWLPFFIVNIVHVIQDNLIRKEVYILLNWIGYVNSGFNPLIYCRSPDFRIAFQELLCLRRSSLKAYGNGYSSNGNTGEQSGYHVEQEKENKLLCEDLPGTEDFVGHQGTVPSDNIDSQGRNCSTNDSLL
A1 inh – inhibitors of the anti-apoptotic protein A1, read as caspase activation; MEF A1-2A-BIM cells, Caspase-Glo 3/7 luminescence, 3 h; percent of clofoctol response, vehicle zero; caspase activation, % (concentration not given with the values); 0.066% of 330,000 active;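 active = over half of replicate activation scores above 10%, or exactly half above 10 with the replicate mean above 10; inconclusive = replicate mean below 10 yet half the replicates above 10; inactive = over half of replicates below 10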;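 note: wells of about 30 µL received 50 nL stock; many hits fall short of the cut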
UCH37 inh – human UCH37 deubiquitinating enzyme inhibition. inhibition, % (test concentration not listed). purified proteasome/UCH37, Ub-AMC cleavage fluorescence. Q9Y5K5. 0.33% of 330,000 active;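 active = mean of two replicates above 20%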;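 note: 0% = compound-free wells with enzyme and 100% = wells lacking proteasome; stock transfer was 100 nL into about 20 µL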
Target sequence (Q9Y5K5 whole entry, looked up): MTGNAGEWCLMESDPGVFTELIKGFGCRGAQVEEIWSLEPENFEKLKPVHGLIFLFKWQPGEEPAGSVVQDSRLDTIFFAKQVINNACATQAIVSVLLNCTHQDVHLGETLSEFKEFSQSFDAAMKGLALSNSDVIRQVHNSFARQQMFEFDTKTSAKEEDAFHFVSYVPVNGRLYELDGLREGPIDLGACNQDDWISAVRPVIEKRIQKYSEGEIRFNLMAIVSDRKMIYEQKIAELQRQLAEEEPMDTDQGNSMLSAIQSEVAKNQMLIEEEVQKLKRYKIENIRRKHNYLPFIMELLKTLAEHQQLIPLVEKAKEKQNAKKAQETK
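Material: Human UCH37 enzyme supplied as purified proteasome complex | Schedule: 30 min compound-proteasome preincubation then 25 min substrate reaction, room temperature | Detection: AMC fluorescence from Ub-AMC cleavage, excitation 355 nm, emission 460 nm | Benchmarks: Wells without proteasome as full block, compound-free enzyme plus substrate as uninhibited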
LANA-H2B inh – blocks KSHV LANA binding to histone H2A/H2B | Q9QR71 | cell-free LANA-H2A/H2B peptide, fluorescence polarization | inhibition, % (no concentration beside the values) | 0.6% of 320,000 active | AID 2629; in the data active = inhibition mostly above about 10%, no sharp cut-off; inactive = mostly below about 6.7%;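 note: stock transfer was 7.5 nL into about 10 µL; 0% = median of vehicle wells and 100% = median of positive control wells; one replicate is shown; the record names a cut of 25% in any replicate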
RanGTP-Imp inh – inhibitors of RanGTP-importin-beta interaction, primary screen, biochemical, FRET, CFP-Ran, YFP-importin-beta, homogeneous; cell-free CFP-Ran/YFP-importin-beta FRET ratio; inhibition, % (test concentration not listed); 1.1% of 300,000 active;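 active = most replicates above 15%; inconclusive = exactly half above 15%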;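 note: 0% = DMSO wells and 100% = Ran loaded with GDP instead of GTP; wells of about 40 µL received 100 nL stock; the first replicate is given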
Calb FLC – C. albicans growth modulation with fluconazole. C. albicans CaCi-2 (fluconazole-resistant clinical isolate) + fluconazole, Alamar Blue growth, 48 h. growth inhibition, % (test concentration not listed). 0.57% of 300,000 active. AID 1979;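 active = most replicates above 75%; inconclusive = exactly half above 75%; inactive = most below 75%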;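 note: all wells also contain fluconazole at 8 µg/ml as a sub-toxic cotreatment; 0% = median of DMSO wells and 100% = median of geldanamycin control wells; wells of about 8 µL received 7.5 nL stock; the first replicate is given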
T cruzi inh – T. cruzi replication inhibition. T. cruzi beta-gal in NIH3T3, luminescence, 90 h. inhibition, % (concentration not given with the values). 1.4% of 300,000 active. AID 1885;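 active = mean inhibition across valid replicates above about 55%, limit read from the data; inconclusive = mean below that limit but half or more replicates reach it; inactive = mean below it, under half of replicates reach it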;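 note: signal also drops with host cell toxicity which is not excluded here; 0% = plate median of DMSO wells and 100% = zero luminescence signal; higher percent means less beta-gal luminescence so fewer parasites; stock transfer was 50 nL into about 50 µL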
The depositor's hits bear a star; u = inconclusive; x = not tested or not shown; & = joins results of further samples.

SMILES	Beta apoptosis	B2AR ag	A1 inh	UCH37 inh	LANA-H2B inh	RanGTP-Imp inh	Calb FLC	T cruzi inh
Cc1ccc(SCC2(O)CCN(S(=O)(=O)c3ccc(Cl)cc3)CC2)cc1	2	-1	0.3	0.8	3.2	-2.5	35	11
CCCCC(CC)C(=O)Nc1ccc(S(=O)(=O)N2CCCC2)cc1 (configuration not stated)	-2	0	0.4	0.0	-5.6	-1.4	-3	15
COc1ccccc1C(C(=O)NCc1ccc(F)cc1)N(C(=O)c1csnn1)C1CC1 (configuration not stated)	-5	-3	-0.5	2.0	1.8	-1.0	6	-6
COc1ccc(OCC(=O)OCC(=O)Nc2ccc3[nH]c(=O)[nH]c3c2)cc1	1	-4	-0.5	3.6	5.2	x	x	x
CC1CCc2nc3ccc(S(=O)(=O)N4CCC(C(=O)N5CCCCCC5)CC4)cc3c(C(=O)O)c2C1 (configuration not stated)	-2	4	-0.3	2.8	0.5	3.5	6	-8
CCSc1nc2ccccc2n1Cc1nc(N)nc(N(C)C)n1	-2	-10	-0.1	3.4	-9.8	3.2	-27	-31
CCCC(=O)Nc1cc2c(cc1C(=O)c1ccccc1)OCCO2	3	-10	-0.2	0.4	x	4.7	-33	12
O=c1cc(O)nc[nH]1	2	1	0.1	4.7	2.5	0.2	-4	-5
Cc1ccccc1-c1nc(CN2CCC(C(=O)NCCCN3CCCC(C)C3)CC2)c(C)o1 (configuration not stated)	4	9	-0.6	2.2	-0.7	0.6	-1	30
Cc1noc(C)c1CS(=O)(=O)c1ccc(Br)cc1	1	-3	0.2	5.3	-0.9	-3.9	2	2
Cc1c(C#N)c(O)n(CCO)c(=O)c1N=Nc1ccccc1	16	-5	0.8	10	4.5	-1.4	-16	-4
Cc1ccccc1OC(C)C(=O)Nc1ccc(S(=O)(=O)N2CCCC2)cc1 (configuration not stated)	-4	-2	0.5	1.2	1.3	-5.0	-2	3
NS(=O)(=O)c1ccc(CCNC(=O)COC(=O)/C=C/c2cc(Br)ccc2F)cc1	-4	x	0.8	3.4	3.4	x	x	x
Cn1c2ccc(F)cc2c2nc3ccccc3nc21	x	-3	-4.4	-17	-3.6	-0.9	5	-1
COc1ccc(OC(=O)c2cn(C)nc2C(F)(F)F)cc1	-4	3	0.2	11	1.7	0.0	-11	-6
CCOc1ccc(CCNC(=O)c2cccc(-n3cnnn3)c2)cc1OCC	3	0	0.6	-2.9	0.1	x	x	x
O=C(O)CC12C[C@H]3C[C@@H](C1)CC(n1ncc(N4CCN(c5ccccc5)CC4)c(Cl)c1=O)(C3)C2	-5	1	-0.3	9.5	-6.9	0.3	1	-17
CCc1cc(C(=O)COc2ccccc2F)c(O)cc1O	2	7	0.2	2.4	-4.1	x	61	-11
Cc1nn(C)cc1S(=O)(=O)Nc1ccc(F)c(F)c1	-6	5	0.4	-2.1	4.2	u	-1	-5
CCC(CCC(=O)Nc1ccn(-c2ccccc2)n1)C(=O)O (configuration not stated)	3	2	-0.2	5.0	3.3	0.6	3	0
Cc1cc(C)n2nc[n+](C)c2n1	-2	6	0.0	1.5	19*	5.2	2	-12
CCn1c(CCNC(=O)c2cccs2)nnc1SCC(=O)NC1CCCCC1	0	-13	0.2	1.6	1.2	-1.1	-1	-12
O=C(COc1ccccc1-c1ccccc1)NCc1ccco1	x	-3	-0.2	5.0	2.4	u	-2	32
O=C(Oc1ccc(OC(=O)N2CCCCC2)cc1)N1CCCCC1	x	x	0.3	1.3	-6.6	-1.5	-40	-15
COc1ccc(-c2csc(=NCCO)n2-c2ccccc2)cc1	5	17	0.3	0.9	2.2	0.9	-2	-8
CCCCN(C)Cc1cc(=O)oc2ccc3ccccc3c12	8	3	-0.7	-18	0.9	-2.4	-1	-5
O=C(CCC1CCN(C(=O)c2cc(C(F)(F)F)ccc2Cl)CC1)NC1CC1	-7	-3	-0.5	2.1	0.1	1.6	-2	-11
CCCCn1c(C)csc1=Nc1cccnc1	-1	-10	0.0	-1.2	1.0	0.3	3	-5
CC(=O)Oc1ccc(C(=O)[C@H]2[C@H]3C(=O)N(c4ccc5ccccc5c4)C(=O)[C@H]3[C@@H]3C=CC=NN32)cc1	0	5	0.6	x	6.4	5.9	37	-6
COc1ccc2oc(=O)cc(CN3CCOCC3)c2c1	1	6	-0.4	-22	6.4	u	4	-6
Cc1ccc(C2C(C#N)=C(N)Oc3n[nH]c(-c4cccs4)c32)cc1 (configuration not stated)	-4	2	-0.3	5.9	6.6	1.8	1	-17
O=C(Nc1cc(S(=O)(=O)N2CCCCC2)ccc1N1CCOCC1)c1ccc(C(F)(F)F)cc1	-1	-1	0.5	3.5	4.0	x	x	x
O=C1CCCN2N=C(SCC(=O)Nc3nc4ccccc4s3)SC2=N1	3	-10	-1.2	2.7	9.6	0.0	-11	-2
O=C1C(NS(=O)(=O)c2ccc(Br)cc2)=C(N2CCCCC2)C(=O)c2ccccc21	20	3	0.0	14	4.2	4.9	-8	22
Cc1cc(C(=O)NCCC2=CCCCC2)no1	-1	-2	0.2	x	-2.5	-3.8	-1	-5
CCOc1cc(NC(=O)C2CC2)c(OCC)cc1NC(=O)c1cc(OC)c(OC)c(OC)c1	10	-14	0.1	-31	2.0	9.2	7	15
CCOC(=O)Cn1cnc2sc(C(=O)OC)c(C)c2c1=O	-4	8	0.7	1.9	-1.6	3.1	-16	7
COC(=O)C1=C(C)NC(C)=C(C(=O)OC)C1C(=O)OC(C)C(=O)c1ccccc1 (configuration not stated)	0&-7	6&10	-0.7&0.8	-5.0&-7.9	-1.1&-1.5	22*	2	-4
O=C(COc1ccc(S(=O)(=O)N2CCOCC2)cc1)Nc1ccccc1Cl	-3	1	0.3	-2.5	2.7	u	-3	-9
CS(=O)(=O)Cc1nc2ccccc2oc1=O	x	3	0.6	4.7	-2.0	-2.6	-3	-5
O=C(Nc1ccccc1C(=O)OCC(=O)c1c[nH]c2ccccc12)c1ccco1	0	6	1.7	-13	-4.3	-2.6	40	10
CC1(C)CC(N2CCN(c3ccccc3)CC2)=CC(=[N+]2CCCC2)C1	97*	-10	-0.2	7.4	1.5	4.4	94*	68*
Cc1ccc(N2CCCC2=O)cc1S(=O)(=O)N1CCOCC1	0	4	0.2	2.8	-1.9	-0.4	-2	-15
COc1cc(CC(=O)OCC(=O)Nc2ccc(N(C)C)cc2)cc(OC)c1OC	-1	4	-0.1	1.2	7.5	x	x	x
COc1cccc(CN2CCN(C(=O)c3ccc(-c4ccccc4)cc3)CC2)c1	1	7	-0.3	1.9	2.9	4.0	8	19
COC(=O)C1(C)NC(c2ccccc2OC)C2C(=O)N(c3ccccc3)C(=O)C21 (configuration not stated)	0	-5	0.2	2.7	-0.1	4.0	0	-3
CSc1ccc(CN(C)CC(=O)NCCc2ccccc2)cc1	-2	-2	1.0	2.6	-2.2	8.5	-9	1
COc1ccc(N2C(=O)CC(Sc3nnc(-c4ccccc4F)n3C)C2=O)cc1 (configuration not stated)	-3	2	0.1	-2.5	-1.0	-2.0	-41	3
Cc1cc(C)nc(SCc2nnc(SCC(=O)N3CCCc4ccccc43)n2C)n1	x	7	0.4	-0.5	1.4	1.1	-5	5
CCOc1ccc(CN(C)C(=O)c2cccc(S(=O)(=O)N3CCCC3)c2)cc1OC	-8	10	0.5	1.2	1.5	x	x	x
CCN(CC(=O)NCc1cccs1)C(=O)c1ccc(Cl)c(Cl)c1	-1	-2	-0.8	-1.0	-0.2	x	x	x
O=C(O)c1nnn(-c2ccc(F)cc2F)c1-c1ccccc1	-2	-2	1.1	-0.5	2.6	2.1	-8	7
COC(=O)N/N=C/c1c(C)cc(C)cc1C	-1	1	0.0	x	-2.5	3.0	-4	-3
O=S(=O)(NCCCc1ccccc1)c1ccc(Br)cc1	-5	0	-0.1	5.5	4.5	-1.9	-18	3
O=C(/C=C/c1ccccc1)NC1CCS(=O)(=O)C1 (configuration not stated)	0	0	-0.2	5.6	1.2	3.2	3	-5
O=C(Nc1ccc(-c2ccc3nncn3n2)cc1)C1CCCCC1	-6	-5	0.7	-3.9	1.2	-0.6	2	-10
OC(COc1ccc2c(c1)OCO2)CN1CCc2ccccc2C1 (configuration not stated)	0	1	-0.3	-2.3	4.2	1.1	0	-1
COc1ccc(NC(=O)c2cc(-c3ccccc3)on2)cc1	4	-4	-0.2	-1.7	1.7	-1.1	10	-1
O=C(O)C12CC3CC(C1)CC(n1cnc(Cl)n1)(C3)C2	2	5	0.8	1.7	-4.0	-1.1	-4	-16
CC(=O)[C@@H]1[C@@H](C(=O)c2ccc(C)cc2)[C@]2(C(=O)Nc3ccccc32)[C@H]2C=Cc3cc(F)ccc3N12	4	4	0.1	6.0	-21	1.0	7	8

Next section:
SMILES	Beta apoptosis	B2AR ag	A1 inh	UCH37 inh	LANA-H2B inh	RanGTP-Imp inh	Calb FLC	T cruzi inh
O=c1[nH]cnc2c1cnn2Cc1ccccc1Cl	-3	-2	-0.9	5.1	1.6	-0.9	-4	1
Cc1oc(CN2CCOCC2)cc1C(=O)O	x	0	0.7	5.7	0.1	0.5	-5	-19
O=C(CSc1nc2ccccc2[nH]1)NCC1CCCO1 (configuration not stated)	-2	-5	-0.4	2.7	0.1	-0.3	3	-2
CC(C)(Oc1ccc(Cl)cc1)C(=O)OCC(=O)N1CCCC1	-9	9	-0.1	0.9	-2.2	5.4	-1	-7
COc1ccccc1CCN1CCCC(CN(C)C(=O)c2ccoc2)C1 (configuration not stated)	-2	-2	0.4	-0.5	2.2	5.1	-13	36
CCOC(=O)/C(=C/Nc1ccc(F)cc1)[N+](=O)[O-]	-7	2	-0.3	2.0	-0.2	-1.9	1	7
CN(Cc1ccccc1)C(=O)c1ccccc1NC(=O)c1ccco1	-3	4	0.9	x	1.8	2.2	4	-8
COc1cc(/C=C(/C#N)c2nc3ccccc3c(=O)[nH]2)ccc1O	-2	-7	-7.8	4.5	-3.5	-4.8	-7	11
Nc1nccnc1C(=O)N/N=C/c1ccco1	4	-3	-1.6	x	-5.6	0.7	-8	-14
CSc1ccc(CCNC(=O)C2CCCN(S(=O)(=O)N3CCOCC3)C2)cc1 (configuration not stated)	-1	1	0.8	5.2	-2.3	u	6	-9
NC(=O)c1cc(N)ccc1N1CCCCC1	0	-5	0.0	3.7	-1.4	-4.8	-12	3
Cc1cccc(CSc2nc3c(c(=O)n2C)SCC3)c1	19	7	0.9	6.1	-0.3	-1.0	-18	13
Cc1ccc(CN2CCS(=O)(=O)CC2)cc1	-2	-11	-0.4	4.3	2.2	5.5	-10	-23
O=C(CSc1ccc2ccccc2n1)Nc1nsc(-c2ccc(Cl)cc2)n1	-4	0	0.6	0.9	7.2	2.6	-2	-8
N#Cc1cccnc1N1CCN(C(=O)c2cccc3c2C(=O)c2ccc(-c4ccc(Cl)c(C(F)(F)F)c4)cc2S3(=O)=O)CC1	-4	-8	-1.4	3.3	3.5	x	x	x
